Source: PubChem BioAssay
GALR2 ag: GALR2 (human) receptor agonism; GALR2-expressing cells, agonist activation read-out; AID 803; actives 0.48% (n = 140,000); O43603; activation, %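 (tested at 5 µM)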;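 active = above mean plus 3 SD of all compounds, about 5% in these data, not always enough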;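 also: 0% = vehicle buffer wells and 100% = reference agonist at full effect; tested in CHO reporter cells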
Target sequence (O43603 whole entry, looked up): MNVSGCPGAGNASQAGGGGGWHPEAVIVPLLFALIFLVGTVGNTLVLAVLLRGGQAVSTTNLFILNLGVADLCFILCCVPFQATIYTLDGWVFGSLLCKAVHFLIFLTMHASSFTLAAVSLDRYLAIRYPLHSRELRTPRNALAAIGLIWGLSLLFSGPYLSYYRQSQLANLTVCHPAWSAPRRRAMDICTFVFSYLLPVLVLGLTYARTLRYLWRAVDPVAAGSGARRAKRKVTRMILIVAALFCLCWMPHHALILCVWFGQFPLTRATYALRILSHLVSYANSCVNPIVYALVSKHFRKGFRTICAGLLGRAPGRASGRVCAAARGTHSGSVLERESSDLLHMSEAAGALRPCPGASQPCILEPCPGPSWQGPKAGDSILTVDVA
HSV augment: increases HSV replication in cells; HSV replication augmentation in cells, fold increase; actives 0.005% (n = 220,000); maximum fold increase;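 active = peak rise of 1.5-fold or more in the series; inconclusive = self-fluorescent or not available for retest; tested in PC3 cells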;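 also: first round at 10 µM; read as green reporter fluorescence; hits show the peak of a series up to 25 µM; 1 = signal of infected wells without compound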
PKD1 kinase inh: blocks activity of human protein kinase D1; Q15139; PKD1 kinase fluorescence polarization assay; inhibition, %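 (about 10 µM by stock and volumes)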; actives 0.056% (n = 200,000);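 active = inhibition of 50% or more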;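 also: controls were vehicle for no effect and a reference inhibitor for full effect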
RGS16-Gao HTS: RGS16-Galphao interaction regulator (human). AID 1441. O15492+P09471. actives 0.38% (n = 220,000). binding response (% of control), % at 10 µM. bead-based flow cytometry RGS16-Galphao binding, fluorescence; actives lie on both sides;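 active = below 25% or above 175%, edge rows of some plates excepted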;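 also: Galphao activated by GDP with aluminum fluoride before binding; 100% = wells without compound and 0% = beads without RGS; some results beyond the cut were filed as inactive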
Target sequence (O15492 whole entry, looked up): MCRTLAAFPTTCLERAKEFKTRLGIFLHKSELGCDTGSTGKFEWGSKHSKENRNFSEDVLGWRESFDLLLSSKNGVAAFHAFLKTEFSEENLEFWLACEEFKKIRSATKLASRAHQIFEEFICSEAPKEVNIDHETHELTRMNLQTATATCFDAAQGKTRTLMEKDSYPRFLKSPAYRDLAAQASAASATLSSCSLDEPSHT
Target sequence (P09471 whole entry, looked up): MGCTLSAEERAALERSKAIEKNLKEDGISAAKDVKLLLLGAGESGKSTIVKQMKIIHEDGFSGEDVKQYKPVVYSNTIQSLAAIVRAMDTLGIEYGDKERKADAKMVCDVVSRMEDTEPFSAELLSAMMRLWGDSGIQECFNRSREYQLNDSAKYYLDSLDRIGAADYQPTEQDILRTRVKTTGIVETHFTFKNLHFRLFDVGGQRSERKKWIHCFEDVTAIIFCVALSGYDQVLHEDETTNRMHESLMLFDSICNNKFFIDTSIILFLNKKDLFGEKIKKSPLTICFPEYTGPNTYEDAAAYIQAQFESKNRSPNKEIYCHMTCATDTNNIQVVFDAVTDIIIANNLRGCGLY
INS promoter inh: TRM-6 insulin promoter activity inhibition. TRM-6 cells (human fetal islet line), insulin promoter-eGFP reporter, imaging; reporter expression induced with tamoxifen. inhibition, % at 2 µM. actives 0.9% (n = 130,000). AID 1273;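 active = inhibition above the mean plus 3 SD, with well images judged a real hit on visual review, cut at about 60% in these data, passing the limit was not always enough; inconclusive = inhibition over the cutoff but images rejected on review; inactive = inhibition not above the cutoff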
INS promoter inh cell count: further read-out of INS promoter inh, marked with its call; normalized cell count, %; measured here: cell count, toxicity; reference of the scale not given here;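 cells exposed to compound for 48 h; stained nuclei by imaging scaled within each plate; lower means fewer cells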
HSV augment primary fold: also measured in HSV augment; calls as there; fold increase; compound at 10 µM; measured here: primary screen fold increase 10 uM; tested in PC3 cells;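 GFP signal in the first replicate; 1 = infected wells without compound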
* = called active by the depositor; i = inactive; u = inconclusive; x = not tested or not shown.

SMILES | GALR2 ag | HSV augment | HSV augment primary fold | PKD1 kinase inh | RGS16-Gao HTS | INS promoter inh | INS promoter inh cell count
Cc1cc(C)nc(/N=C2\NC(=O)CC(C(=O)O)N2c2ccc(F)c(Cl)c2)n1 (centres undefined) | x | i | 0.98 | -1.3 | 104.5 | x | x
Cc1nn(CC(=O)NCC2CCCO2)c(C)c1[N+](=O)[O-] (centres undefined) | x | i | 0.95 | -6.0 | 80.7 | 56.5 | 66.0
COc1ccc(CNC(=O)CCn2c(=O)[nH]c3ccccc3c2=O)cc1 | x | i | 0.88 | -4.1 | 103.5 | x | x
CNC(=O)NNC(=O)c1onc(-c2c(Cl)cccc2Cl)c1C(=O)OC | x | i | 0.9 | x | 97.2 | x | x
Cc1cc(C)nc(NS(=O)(=O)c2ccc(CC(C)C)cc2)c1 | x | i | 0.86 | x | 103.7 | x | x
O=C(O)c1cn(-c2ccccc2)c(=O)c2ccccc12 | -1.2 | i | 1.03 | -7.7 | 103.3 | 70.0* | 168.5*
NS(=O)(=O)c1cccc(NS(=O)(=O)c2ccc(/C=C/C(=O)OCC(=O)c3ccc(Br)cc3)cc2)c1 | x | i | 0.96 | 7.9 | 100.5 | x | x
Cn1c2c(c(=O)n(C)c1=O)C(c1ccc(F)cc1)C(C#N)=C(N)O2 (centres undefined) | x | i | 1.28 | 8.7 | 101.7 | x | x
COc1ccc(-c2nc(NC(=O)C3CCN(c4nc5ccccc5o4)CC3)sc2C)cc1 | 1.0 | i | 0.88 | -2.8 | 101.8 | x | x
CCOC(=O)COc1ccc2c3c(c(=O)oc2c1C)CCC3 | -2.9 | i | 1.07 | 6.8 | 101.6 | i | 36.8
CC(C)Cn1c(N)c(C=O)c(=O)n(C)c1=O | x | i | 0.94 | -1.1 | 106.2 | 10.0 | 140.7
O=C1c2cccc3cc([N+](=O)[O-])cc(c23)C(=O)N1CC1CCCO1 (centres undefined) | x | i | 1.07 | x | 100.4 | x | x
O=C1CN(C(=O)c2ccco2)C(c2ccccc2)c2cc(Cl)ccc2N1 (centres undefined) | -1.3 | i | 1.01 | -2.7 | 102.6 | 10.0 | 104.8
CC(C)/C=N/NC(=O)c1cccc(N2CCCC2=O)c1 | 0.2 | i | 0.99 | -2.5 | 100.8 | x | x
CN(C)c1ccc(NC(=O)Cn2c(=O)n(Cc3ccccc3)c(=O)c3ccccc32)cc1 | -1.2 | i | 0.92 | -6.9 | 81.6 | x | x
Cn1c(COc2ccccc2)nnc1SCCSc1nnc(COc2ccccc2)n1C | -0.3 | i | 0.73 | 14.4 | 97.9 | -37.0 | 101.1
COc1ccc(/C=C/C(=O)NCC(c2ccc(F)cc2)N2CCOCC2)cc1OC (centres undefined) | x | i | 0.92 | x | 105.1 | x | x
c1ccc(-n2cc(CN3CCCC3)c(-c3ccc4c(c3)OCO4)n2)cc1 | x | i | 0.85 | -5.5 | 101.6 | x | x
CCC(C)NC(=O)NCc1ccccc1F (centres undefined) | x | i | 0.91 | -4.0 | 100.3 | x | x
c1ccc(CSc2nnnn2-c2cccc3ccccc23)nc1 | -0.9 | i | 0.84 | -2.8 | 111.8 | 17.6 | 94.2
O=C(CCC(=O)Nc1ccccc1Cl)NNC(=O)c1ccccc1[N+](=O)[O-] | x | i | 0.95 | -5.9 | 105.6 | x | x
C=CCN(CC=C)C(=O)CN1C(=O)c2ccccc2C1=O | -1.0 | i | 0.93 | -9.9 | 102.5 | 54.0 | 57.8
CN(C)S(=O)(=O)c1cc(NC(=O)CN2CCN(c3ccc(O)cc3)CC2)ccc1Cl | x | i | 0.84 | -5.3 | 109.0 | 8.3 | 133.5
CCCCn1nnnc1NCc1ccc(OC)c(OC)c1 | -1.3 | i | 1.06 | -10.1 | 86.8 | 22.2 | 158.9
O=C(O)CCc1ccc(-c2cccs2)o1 | -1.5 | i | 0.92 | -3.1 | 96.5 | x | x
Cc1ccccc1OCc1csc(N)n1 | x | i | 0.93 | -5.2 | 100.1 | x | x
COc1cccc(N2C(=O)C(c3ccccc3)=C(c3nc4ccccc4s3)C2NC(C)=O)c1 (centres undefined) | -2.0 | i | 0.89 | 4.4 | 112.4 | 46.7 | 126.0
CCCNC(=S)N1CCC(NC(=O)C23CC4CC(CC(C4)C2)C3)CC1 | -2.4 | i | 1.07 | 1.5 | 107.0 | -24.3 | 71.7
COc1ccc([N+](=O)[O-])cc1NC(=O)CSCc1ccccc1 | 0.0 | i | 0.98 | -5.3 | 99.1 | x | x
O=C(N/N=C/c1ccccc1O)C(=O)Nc1ccccn1 | x | i | 1 | 1.8 | 86.3 | x | x
Cn1cc(/C=C(\C(=O)O)C(C(=O)O)=C2CCCCC2)c2ccccc21 | x | i | 0.96 | 3.0 | 102.9 | 20.0 | 105.3
COCCNc1ccc(-c2nn(C)c(=O)c3ccccc23)cc1[N+](=O)[O-] | x | i | 0.87 | x | 103.7 | x | x
CSc1ccc(CNCCN2CCOCC2)cc1 | x | i | 0.99 | -5.0 | 101.1 | x | x
CCOC(=O)C1(Cc2ccccc2C(F)(F)F)CCN(C2CCCC2)CC1 | x | i | 0.75 | 12.7 | 95.1 | -6.2 | 90.9
Cc1ccc(C(=O)COC(=O)CCc2ccc(S(=O)(=O)N3CCCCC3)cc2)cc1 | -0.2 | i | 0.93 | -5.0 | 104.1 | x | x
CC(=N/O)/C(C)=N\NC(=O)c1ccccn1 | x | i | 0.93 | 8.9 | 98.6 | -44.4 | 122.5
Cc1cccc(C)c1NC(=O)CSc1nnc(NC(=O)CN2CCOCC2)s1 | -0.5 | i | 1.03 | -3.9 | 112.9 | -2.6 | 88.6
CCOC(=O)c1cnn(-c2ccccc2)c1-n1cccc1C(=O)C(=O)Nc1ccccc1C(F)(F)F | -2.0 | i | 0.94 | -8.4 | 99.8 | 21.2 | 85.2
CCOc1cc(C2NN=C(c3ccc(C)cc3)S2)ccc1O (centres undefined) | -0.1 | i | 1.2 | 6.5 | 37.4 | -40.0 | 56.9
O=C(CN1CCC(C(=O)c2ccc3c(c2)OCCO3)CC1)NC1CCCC1 | -0.9 | i | 1.06 | -4.2 | 105.8 | x | x
CCOC(=O)C1=C(C)N(C)C(=O)C1CC(=O)O (centres undefined) | -2.6 | i | 0.86 | 2.0 | 99.8 | 11.1 | 113.7
COC(CNC(=O)Cn1ncc2ccsc2c1=O)OC | -1.5 | i | 1.17 | 4.1 | 98.9 | -466.7 | 55.7
CCCC(C)C(=O)N(Cc1ccccc1)c1ccccn1 (centres undefined) | -0.5 | i | 0.88 | 3.5 | 70.4 | -10.0 | 83.5
O=C(Nc1ccc2c(c1)N(Cc1ccccc1)C(=O)c1ccccc1S2)NC1CC1 | -2.3 | i | 0.92 | -3.4 | 75.0 | -3.3 | 123.7
COc1ccc(-c2nnc(SCCC(=O)O)n2C)cc1OC | -1.6 | i | 1.12 | -3.7 | 101.5 | 22.2 | 114.1
O=C(C[n+]1cc(-c2ccc(Cl)c(Cl)c2)n2c1CCC2)N1c2ccccc2Sc2ccccc21 | -2.0 | i | 0.78 | 3.5 | 95.5 | -23.5 | 104.1
COC(=O)c1c(NC(=O)COC(=O)c2ccc(O)cc2)sc2c1CCCCC2 | 1.3 | i | 0.99 | 0.3 | 99.2 | x | x
CC1CCN(CCNC(=O)c2ccc(NC(=O)C3CCCO3)cc2)CC1 (centres undefined) | -1.9 | i | 0.84 | -15.6 | 104.0 | x | x
COc1ccc(OC)c(C(=O)COC(=O)c2ccccc2O)c1 | -4.5 | i | 0.74 | -9.9 | 78.2 | 12.5 | 150.2
O=C(CN1CCN(Cc2ccccc2)CC1)N/N=C\C=C/c1ccco1 | -1.6 | i | 1.09 | 4.7 | 87.5 | -6.7 | 116.3

Next section:
SMILES | GALR2 ag | HSV augment | HSV augment primary fold | PKD1 kinase inh | RGS16-Gao HTS | INS promoter inh | INS promoter inh cell count
O=C(CSc1nc2ccccc2o1)NC(=O)NCc1ccco1 | -0.5 | i | 1 | -12.6 | 96.9 | -13.2 | 106.8
CC(=O)Oc1ccc(C(=O)O)c(OC(C)=O)c1 | x | i | 1.03 | x | 100.6 | x | x
CNC(=O)OC(C)CNS(=O)(=O)c1ccc(C)cc1 (centres undefined) | -1.9 | i | 1.01 | -5.8 | 102.3 | -29.2 | 157.3
COCCNC(=O)/C(C#N)=C/c1cccc(NC(=O)c2ccccc2Cl)c1 | -1.6 | i | 0.95 | 0.0 | 96.3 | x | x
CC(=O)Nc1ccc2c(c1)C(=O)c1ccccc1C2=O | -1.4 | i | 0.82 | 8.2 | 100.7 | x | x
c1ccc(Cn2nnc3c(N4CCC5(CC4)OCCO5)ncnc32)cc1 | -0.4 | i | 0.93 | -4.1 | 109.0 | -3.7 | 128.1
O=C(CCC1CCCCC1)NNC(=O)NC12CC3CC(CC(C3)C1)C2 | -2.1 | i | 1.03 | 5.0 | 103.1 | 8.5 | 97.3
CCOC(=O)CC(=O)CSc1nc(-c2ccccc2)cc(-c2ccccc2)c1C#N | -0.4 | u | x | 3.5 | 103.6 | x | x
O=C(NC1CCCCC1)C1CCN(C(=O)NCc2ccccc2)CC1 | 0.7 | i | 0.91 | -6.1 | 103.3 | x | x
O=C(CNC(=O)c1cccs1)NCC(=O)OCc1ccccc1Br | x | i | 0.98 | -2.2 | 101.9 | -45.0 | 45.7

Five of these compounds in a different format.
| smiles | GALR2 ag | HSV augment | HSV augment primary fold | PKD1 kinase inh | RGS16-Gao HTS | INS promoter inh | INS promoter inh cell count |
| --- | --- | --- | --- | --- | --- | --- | --- |
| CC(=O)Oc1ccc(C(=O)O)c(OC(C)=O)c1 | x | i | 1.03 | x | 100.6 | x | x |
| CNC(=O)OC(C)CNS(=O)(=O)c1ccc(C)cc1 (centres undefined) | -1.9 | i | 1.01 | -5.8 | 102.3 | -29.2 | 157.3 |
| COCCNC(=O)/C(C#N)=C/c1cccc(NC(=O)c2ccccc2Cl)c1 | -1.6 | i | 0.95 | 0.0 | 96.3 | x | x |
| CC(=O)Nc1ccc2c(c1)C(=O)c1ccccc1C2=O | -1.4 | i | 0.82 | 8.2 | 100.7 | x | x |
| c1ccc(Cn2nnc3c(N4CCC5(CC4)OCCO5)ncnc32)cc1 | -0.4 | i | 0.93 | -4.1 | 109.0 | -3.7 | 128.1 |

Further compounds follow:
SMILES | GALR2 ag | HSV augment | HSV augment primary fold | PKD1 kinase inh | RGS16-Gao HTS | INS promoter inh | INS promoter inh cell count
O=C(NCCN1C(=O)S/C(=C\c2ccc(Cl)c(Cl)c2)C1=O)c1cnccn1 | -0.6 | i | 0.88 | 1.2 | 89.9 | x | x
CC(C)(C)C(=O)COC(=O)c1ccc(O)cc1 | -2.5 | i | 0.87 | -11.3 | 68.9 | 19.4 | 165.3
Cc1nc2ccc(NC(=O)Cc3cccc(F)c3)cc2s1 | x | i | 1.03 | -8.7 | 95.9 | x | x
Cn1nccc1NC(=O)c1nccnc1C(=O)O | x | i | 0.99 | x | 105.0 | x | x
Cc1ccc(NC(=O)NCc2c(C)nn(C)c2C)cc1Cl | x | i | 1.01 | -4.8 | 104.8 | x | x
CC(=O)Nc1ccc(C(=O)OCC(=O)N(Cc2ccccc2)C(C)(C)C)cc1 | -1.8 | i | 0.92 | 4.7 | 116.0 | 52.5 | 75.8
NNC(=O)c1sc(-c2ccccc2)cc1N | x | i | 1.18 | 3.8 | 89.4 | x | x
CCn1c(SC(C)C)nnc1-c1cc(-c2ccccc2)sc1N | -0.5 | i | 1.03 | -1.6 | 118.2 | -50.0 | 112.4
CCCCOC(=O)Nc1ccc(C(N)=O)cc1 | -1.2 | i | 0.82 | -11.1 | 105.8 | 3.6 | 63.3
COC(=O)c1sc(-c2ccccc2)cc1NC(=O)c1ccc(OC)cc1 | -1.3 | i | 0.96 | 1.9 | 103.2 | 0.0 | 74.9
O=C(CSc1nc(-c2ccc(F)cc2)cc(C(F)(F)F)n1)NCCN1CCOCC1 | -1.4 | i | 0.94 | 0.5 | 103.5 | -25.6 | 93.4
O=C(Nc1ccc(Cl)cn1)Nc1cccs1 | -1.5 | i | 0.937 | 1.7 | 101.7 | x | x
CC(C)c1nn(-c2cc(C(F)(F)F)ccn2)c(=O)o1 | x | i | 0.96 | x | 106.0 | x | x
COc1ccc(C(C(=O)NC2CCCCC2)N(Cc2ccco2)C(=O)CNC(=O)c2ccco2)cc1 (centres undefined) | 0.6 | i | 1.08 | -6.3 | 101.6 | 20.0 | 185.7
COC(=O)c1nn(-c2ccccc2)c(Sc2ccc(Br)cc2)c1/C=N/O | -1.2 | i | 1.07 | -7.8 | 99.9 | -6.5 | 152.6
O=C1COc2ccc(C(=O)c3ccccc3C(=O)NCc3ccccc3)cc2N1 | -1.4 | i | 0.993 | -0.8 | 107.6 | x | x
CN1c2ccccc2C(C)(C)C12CCCC(=O)N2 (centres undefined) | -3.2 | i | 1 | -1.9 | 76.7 | x | x
